Bioassay records from PubChem.
PV pol inh: poliovirus RdRp elongation inhibitors, primary screen, biochemical, fluorescence polarization, total intensity | Genome polyprotein (Poliovirus type 1 (strain Mahoney)), P03300 | poliovirus polymerase elongation; stronger effect = lower value | % elongation, % (compound at 16.7 µg/mL) | actives 0.66% (n = 150,000); in the data active = % elongation below about 90%; note: some results filed as inactive read as strong as hits
Target sequence (P03300 1749-2209 limits assumed): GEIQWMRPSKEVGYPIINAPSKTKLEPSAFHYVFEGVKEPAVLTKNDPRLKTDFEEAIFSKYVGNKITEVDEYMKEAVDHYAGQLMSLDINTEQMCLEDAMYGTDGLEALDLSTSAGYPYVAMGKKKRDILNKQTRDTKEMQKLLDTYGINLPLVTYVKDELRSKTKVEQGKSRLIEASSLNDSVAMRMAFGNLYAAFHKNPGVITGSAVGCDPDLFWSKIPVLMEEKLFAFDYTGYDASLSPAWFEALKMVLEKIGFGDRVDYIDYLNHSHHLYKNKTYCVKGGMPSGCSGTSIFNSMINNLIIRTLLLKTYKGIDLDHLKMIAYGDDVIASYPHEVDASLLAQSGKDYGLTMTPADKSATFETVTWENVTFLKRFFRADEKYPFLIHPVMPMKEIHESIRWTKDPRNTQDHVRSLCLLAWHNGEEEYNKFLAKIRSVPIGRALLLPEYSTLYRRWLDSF
Mtb MbtI inh: MbtI salicylate synthase inhibitors, primary screen, biochemical, fluorescence intensity | P9WFX0 | purified MbtI enzyme, fluorescence intensity read-out | inhibition, %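 (about 17 µg/mL by stock and volumes)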 | actives 0.89% (n = 100,000) | AID 493033, 2011;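 active = above 50% in both replicates, above 80% if mildly self-fluorescent; inactive = the rest, strongly fluorescent compounds included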;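 note: 0% = mean of negative and 100% = mean of positive controls; one replicate is shown; some compounds called inactive have numbers as strong as hits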
MenB inh: M. tuberculosis MenB inhibitors, primary screen, biochemical, absorbance | 1,4-dihydroxy-2-naphthoyl-CoA synthase (Mycobacterium tuberculosis (strain ATCC 25618 / … | MenB enzyme assay, absorbance read-out; some hits fall short of the stated cut | inhibition, %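 (about 12 µg/mL by stock and volumes)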 | actives 0.43% (n = 100,000);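 active = mean of two replicates above 30%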;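 note: 0% = no compound and 100% = wells with inactive enzyme; the first replicate is given; strong numbers were not always called active; inactives centre near -10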
Target sequence (P9WNP5 whole entry, looked up): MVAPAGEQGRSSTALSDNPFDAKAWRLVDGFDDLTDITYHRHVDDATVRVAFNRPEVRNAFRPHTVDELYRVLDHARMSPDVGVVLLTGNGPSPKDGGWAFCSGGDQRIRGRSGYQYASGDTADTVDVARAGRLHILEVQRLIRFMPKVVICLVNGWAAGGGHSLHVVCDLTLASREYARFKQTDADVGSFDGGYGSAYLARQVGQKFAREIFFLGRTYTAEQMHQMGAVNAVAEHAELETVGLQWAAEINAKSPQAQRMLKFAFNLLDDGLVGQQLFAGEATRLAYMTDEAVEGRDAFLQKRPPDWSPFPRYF
PV pol inh intensity: second read-out of PV pol inh, no call of its own (marks repeat the call); % elongation; measured here: total intensity read-out; formula for this scale not given here;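 total fluorescence in place of polarization; lower means less elongation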
The depositor's hits bear a star; & = joins results of further samples.

Sample of the layout:
How did CC(SCC(=O)Nc1ccccc1)c1nc2ccccc2c(=O)[nH]1 (configuration not stated) do in these assays?
PV pol inh: 108; Mtb MbtI inh: -2; MenB inh: -34; PV pol inh intensity: 100

Results for CC(C)=C(C#N)c1nc2ccccc2s1 ?
PV pol inh: 104; Mtb MbtI inh: 3; MenB inh: -25; PV pol inh intensity: 109

What do the screens show for `CC(=O)N(c1ccc(F)cc1)c1nc(-c2cc3ccccc3oc2=O)cs1`?
PV pol inh: 103; Mtb MbtI inh: -10; MenB inh: -2; PV pol inh intensity: 101

What do the screens show for `Cc1nc2nc(C)c(NS(=O)(=O)c3ccc(Cl)s3)c(=O)n2[nH]1`?
PV pol inh: 100; Mtb MbtI inh: -5; MenB inh: 0; PV pol inh intensity: 103

Main list, from the first entry:
How did CC(SCC(=O)Nc1ccccc1)c1nc2ccccc2c(=O)[nH]1 (configuration not stated) do in these assays?
PV pol inh: 108; Mtb MbtI inh: -2; MenB inh: -34; PV pol inh intensity: 100

Results for CC(C)=C(C#N)c1nc2ccccc2s1 ?
PV pol inh: 104; Mtb MbtI inh: 3; MenB inh: -25; PV pol inh intensity: 109

What do the screens show for `CC(=O)N(c1ccc(F)cc1)c1nc(-c2cc3ccccc3oc2=O)cs1`?
PV pol inh: 103; Mtb MbtI inh: -10; MenB inh: -2; PV pol inh intensity: 101

What do the screens show for `Cc1nc2nc(C)c(NS(=O)(=O)c3ccc(Cl)s3)c(=O)n2[nH]1`?
PV pol inh: 100; Mtb MbtI inh: -5; MenB inh: 0; PV pol inh intensity: 103

Results for Clc1ccc2c(c1)C1C=CCC1C(c1ccccc1)N2 (configuration not stated) ?
PV pol inh: 99; Mtb MbtI inh: 12; MenB inh: -13; PV pol inh intensity: 132

Results for O=C1C2N=NN(CC(=O)N(c3ccccc3)c3ccccc3)C2C(=O)N1c1ccc(Cl)cc1 (configuration not stated) ?
PV pol inh: 103; Mtb MbtI inh: -3; MenB inh: -7; PV pol inh intensity: 103

Results for CCSc1ccccc1C(=O)NCCO ?
PV pol inh: 104; Mtb MbtI inh: -12; MenB inh: -17; PV pol inh intensity: 105

How did Cc1cc(C)c(C)c(S(=O)(=O)N2CCN(CN3C(=O)CNC3=O)CC2)c1C do in these assays?
PV pol inh: 98; Mtb MbtI inh: 8; MenB inh: -14; PV pol inh intensity: 101

Results for CCN(CC)C(=O)Cn1cc(S(=O)(=O)CC#N)c2ccccc21 ?
PV pol inh: 105; Mtb MbtI inh: -8; MenB inh: -14; PV pol inh intensity: 103

Results for COc1ccc2oc(=O)c(-c3nnc(-c4ccccc4)o3)cc2c1 ?
PV pol inh: 101; Mtb MbtI inh: -3; MenB inh: 6; PV pol inh intensity: 100

How did Cc1noc(C)c1COc1ccc(C(=O)NCCNc2ncc(C(F)(F)F)cc2Cl)cc1 do in these assays?
PV pol inh: 102; Mtb MbtI inh: 2; MenB inh: 0; PV pol inh intensity: 110

What do the screens show for `O=C(CSc1nnnn1-c1ccccc1)N1c2ccccc2CCc2ccccc21`?
PV pol inh: 102; Mtb MbtI inh: -6; MenB inh: -30; PV pol inh intensity: 95

What do the screens show for `COc1ccc(NC(=O)CSc2c(C)nn(-c3nnc(C)c(=O)[nH]3)c2C)cc1`?
Mtb MbtI inh: 0; MenB inh: 3

What do the screens show for `C=CCNC(=O)/C=C/c1ccc(C(C)C)cc1`?
PV pol inh: 102; Mtb MbtI inh: -2; MenB inh: -20; PV pol inh intensity: 105

What do the screens show for `NCCCOc1ccccc1`?
PV pol inh: 103; Mtb MbtI inh: -14; MenB inh: -6; PV pol inh intensity: 109

What do the screens show for `CCCc1cc(C(=O)Nc2sc(C)c(C)c2C(=O)OCC)no1`?
PV pol inh: 99; Mtb MbtI inh: 90; MenB inh: -14; PV pol inh intensity: 100

How did CCOC(=O)c1cc(=O)c(-c2ccccc2)n[nH]1 do in these assays?
PV pol inh: 102; Mtb MbtI inh: 13; MenB inh: -68; PV pol inh intensity: 101

How did CCc1nc(NCCCO)c2nnn(Cc3ccccc3F)c2n1 do in these assays?
PV pol inh: 102; Mtb MbtI inh: -8; MenB inh: -18; PV pol inh intensity: 103

Results for C#CCN1C(=O)S/C(=C/c2ccc(N3CCCCC3)cc2C)C1=O ?
PV pol inh: 75; Mtb MbtI inh: 0; MenB inh: -62; PV pol inh intensity: 179

Results for Cc1ccccc1-c1nsc(SCC(=O)NCc2ccco2)n1 ?
PV pol inh: 100; Mtb MbtI inh: -3; MenB inh: 13; PV pol inh intensity: 102

How did Cc1c(Cl)ccc2c(C(=O)Nc3cc(C(C)(C)C)on3)cc(-c3ccccn3)nc12 do in these assays?
PV pol inh: 103; Mtb MbtI inh: -12; MenB inh: -11; PV pol inh intensity: 106

Results for CC1CCN(CC(=O)n2c3ccccc3c3ccccc32)CC1 ?
PV pol inh: 103; Mtb MbtI inh: -3; MenB inh: -84; PV pol inh intensity: 101

What do the screens show for `C(=Nc1nc2ccccc2nc1N1CCOCC1)N1CCN(C(c2ccccc2)c2ccccc2)CC1`?
PV pol inh: 107; Mtb MbtI inh: 23; MenB inh: 21; PV pol inh intensity: 99

Results for O=C(NCCc1ccccc1)C1(S(=O)(=O)c2ccc(Cl)cc2)CC1 ?
PV pol inh: 101; Mtb MbtI inh: -2; MenB inh: 4; PV pol inh intensity: 99

How did CC(C)c1ccc(NC(=O)CN2C(=O)C3CC=CCC3C2=O)cc1 (configuration not stated) do in these assays?
PV pol inh: 104; Mtb MbtI inh: -8; PV pol inh intensity: 105

What do the screens show for `CN(C(=O)CSC1=Nc2ccccc2C2=NC(c3ccccc3)C(=O)N12)C1CCCCC1` (configuration not stated)?
PV pol inh: 102; Mtb MbtI inh: 53; MenB inh: -9; PV pol inh intensity: 106

What do the screens show for `CCOc1ccc2c(=O)c(-c3ccccc3)c(C)oc2c1`?
PV pol inh: 99; Mtb MbtI inh: -28; MenB inh: -21; PV pol inh intensity: 102

What do the screens show for `COc1ccccc1-c1c(C)nn2c(NCCN3CCCCC3C)cc(C)nc12` (configuration not stated)?
PV pol inh: 104; Mtb MbtI inh: 1; MenB inh: -24; PV pol inh intensity: 103

How did CN(Cc1ccccc1)Cc1cc(=O)n2nc(C3CC3)sc2n1 do in these assays?
PV pol inh: 102; Mtb MbtI inh: 40; MenB inh: -18; PV pol inh intensity: 102

How did c1ccc(CSc2ccc(-c3ccncc3)nn2)cc1 do in these assays?
PV pol inh: 102; Mtb MbtI inh: -3; MenB inh: 1; PV pol inh intensity: 104

How did COC(=O)c1cccc(OCc2nn[nH]n2)c1 do in these assays?
PV pol inh: 103; Mtb MbtI inh: 4; MenB inh: 27; PV pol inh intensity: 105

What do the screens show for `CCc1ccc(N=Cc2c[nH]c3ccccc23)cc1`?
PV pol inh: 100; Mtb MbtI inh: 1; MenB inh: 2; PV pol inh intensity: 102

What do the screens show for `Cc1cc(C)cc(N2C(=O)CC(=O)NC2=S)c1`?
PV pol inh: 100; Mtb MbtI inh: 24; MenB inh: -93; PV pol inh intensity: 100

How did Cc1onc(-c2ccccc2)c1C(=O)N(Cc1ccccn1)Cc1ccccn1 do in these assays?
PV pol inh: 101; Mtb MbtI inh: -4; MenB inh: -3; PV pol inh intensity: 99

Results for COC(=O)c1ccccc1NC(=O)c1ccc2c(c1)sc1nc(-c3ccc(OC)cc3)cn12 ?
PV pol inh: 100; Mtb MbtI inh: -3; MenB inh: 4; PV pol inh intensity: 97

How did CC1=C(C(=O)OCC(C)C)C(c2ccc(Cl)cc2)NC(=O)N1C (configuration not stated) do in these assays?
PV pol inh: 106; MenB inh: -27; PV pol inh intensity: 91

Results for O=c1c2c3c(sc2[nH]c(=S)n1Cc1ccccc1)CCC3 ?
PV pol inh: 100; Mtb MbtI inh: 18; MenB inh: -53; PV pol inh intensity: 94

What do the screens show for `Cc1cccc(OCCn2c(-c3cccc(C)c3)nc3ccccc32)c1`?
PV pol inh: 102; Mtb MbtI inh: 174; MenB inh: -21; PV pol inh intensity: 104

What do the screens show for `Nc1cc(=O)[nH]c(SCc2csc(-c3ccccc3)n2)n1`?
PV pol inh: 100; Mtb MbtI inh: 23; MenB inh: -72; PV pol inh intensity: 104

How did CCOCc1c(C(=O)N2CCN(c3ncccn3)CC2)oc2ccccc12 do in these assays?
PV pol inh: 103; Mtb MbtI inh: 18; MenB inh: -20; PV pol inh intensity: 108

What do the screens show for `CCN(CC(=O)NCc1ccc(Cl)cc1)C(=O)c1c(C)noc1C`?
PV pol inh: 104; Mtb MbtI inh: -2; MenB inh: 4; PV pol inh intensity: 107

How did O=C(Cc1ccccc1)Nc1ccc2oc(-c3ccc(Br)cc3)nc2c1 do in these assays?
PV pol inh: 100; Mtb MbtI inh: 13; MenB inh: -53; PV pol inh intensity: 101

Results for O=C(NCC(c1cccs1)S(=O)(=O)c1cccs1)Nc1ccc(Cl)cc1 (configuration not stated) ?
PV pol inh: 105; Mtb MbtI inh: -7; MenB inh: -24; PV pol inh intensity: 96

How did Cc1ccc(C(=O)Sc2nc(N)c(C#N)cc2C#N)c(C)c1 do in these assays?
PV pol inh: 112; MenB inh: -20; PV pol inh intensity: 107

What do the screens show for `Cc1ccc(C(=O)OCN2C(=O)c3ccccc3C2=O)cc1NC(=O)c1ccco1`?
PV pol inh: 100; Mtb MbtI inh: 7; MenB inh: 7; PV pol inh intensity: 99

Results for CCOc1cccc(/C=N\NC(=O)c2ccco2)c1O ?
PV pol inh: 103; Mtb MbtI inh: -4; MenB inh: -68; PV pol inh intensity: 102

What do the screens show for `O=C(CN1CCOCC1)NN=C1CCCCC1`?
PV pol inh: 104; Mtb MbtI inh: -15; MenB inh: -1; PV pol inh intensity: 102

Results for N#CC(CO)(Cc1ccccc1)c1nc2ccccc2[nH]1 (configuration not stated) ?
PV pol inh: 101; Mtb MbtI inh: -9; PV pol inh intensity: 100

Results for CSc1nc(C)nc(Sc2ccccc2)c1C#N ?
PV pol inh: 125; Mtb MbtI inh: -1; MenB inh: -5; PV pol inh intensity: 159

How did Cc1ccccc1-n1c(SCC(=O)c2ccc(Cl)cc2)nc2[nH]ncc2c1=O do in these assays?
PV pol inh: 104; Mtb MbtI inh: -13; MenB inh: -4; PV pol inh intensity: 103

What do the screens show for `COc1ccc(-c2n[nH]c(=S)n2C2CCCCC2)cc1OC`?
PV pol inh: 102; Mtb MbtI inh: 16; MenB inh: -22; PV pol inh intensity: 100

Results for CC(C)(C)c1ccc2c(c1)NC(=O)CO2 ?
PV pol inh: 101; Mtb MbtI inh: -4; MenB inh: -2; PV pol inh intensity: 106

What do the screens show for `Cc1cc(Nc2ccccc2)n(CCO)n1`?
PV pol inh: 101; Mtb MbtI inh: -9; PV pol inh intensity: 106

Results for CC1CC(Nc2ccccc2)c2ccccc2N1S(=O)(=O)c1ccc(Br)cc1 (configuration not stated) ?
PV pol inh: 99; Mtb MbtI inh: -2; MenB inh: -8; PV pol inh intensity: 101

Results for O=S(=O)(c1ccc(-c2csc(=Nc3ccccc3)n2CCc2ccccc2)cc1)N1CCCC1 ?
PV pol inh: 102; Mtb MbtI inh: 7; MenB inh: -4; PV pol inh intensity: 96

How did Cc1cc(-c2ccc(C)c(S(=O)(=O)N3CCN(CCOc4ccc(Cl)cc4)CC3)c2)on1 do in these assays?
PV pol inh: 102; Mtb MbtI inh: 10; MenB inh: -31; PV pol inh intensity: 100

How did CSc1nc2n(n1)C(c1ccccc1)C=C(C)N2 (configuration not stated) do in these assays?
PV pol inh: 100; MenB inh: -15; PV pol inh intensity: 107

Results for CCOC(=O)N1CCC(=NNC(=O)c2ccccc2)CC1 ?
PV pol inh: 99; Mtb MbtI inh: 3; MenB inh: -28; PV pol inh intensity: 90

What do the screens show for `CN1C[C@H](C(=O)N[C@]2(C)O[C@@]3(O)[C@@H]4CCCN4C(=O)[C@H](Cc4ccccc4)N3C2=O)C[C@@H]2c3cccc4[nH]cc(c34)C[C@H]21`?
PV pol inh: 99&99; Mtb MbtI inh: 4&-12; MenB inh: -4&10; PV pol inh intensity: 102&103

What do the screens show for `COC(=O)c1ccc(S(=O)(=O)N2CCCN(C(=O)c3cccs3)CC2)n1C`?
PV pol inh: 102; Mtb MbtI inh: 4; MenB inh: -15; PV pol inh intensity: 101

What do the screens show for `O=C(O)c1ccc2c(=O)n3c(nc2c1)CCC3`?
PV pol inh: 102; Mtb MbtI inh: 2; MenB inh: 0; PV pol inh intensity: 105

Results for COC(=O)C1=C(N)Oc2ccccc2C12C(=O)N(C)c1c2c(=O)oc2ccccc12 (configuration not stated) ?
PV pol inh: 102; Mtb MbtI inh: -11; MenB inh: -60; PV pol inh intensity: 104

What do the screens show for `CS/C(=N\S(=O)(=O)c1ccccc1)N1CCCC1`?
PV pol inh: 103; Mtb MbtI inh: -6; MenB inh: -16; PV pol inh intensity: 108

How did CCN(CC)C(=O)/C=C/c1ccc2c(c1)OCO2 do in these assays?
PV pol inh: 106; Mtb MbtI inh: 90; MenB inh: -54; PV pol inh intensity: 100

Results for CC(C)(C)C(=O)Cn1c(NCCO)nc2ccccc21 ?
PV pol inh: 107; MenB inh: -1; PV pol inh intensity: 99

Reprinted at random: two entries already listed, in no set order.
What do the screens show for `CS/C(=N\S(=O)(=O)c1ccccc1)N1CCCC1`?
PV pol inh: 103; Mtb MbtI inh: -6; MenB inh: -16; PV pol inh intensity: 108

Results for COC(=O)C1=C(N)Oc2ccccc2C12C(=O)N(C)c1c2c(=O)oc2ccccc12 (configuration not stated) ?
PV pol inh: 102; Mtb MbtI inh: -11; MenB inh: -60; PV pol inh intensity: 104
